VDR inh: inhibitors of human vitamin D receptor | P11473 | Potency, µM, inactives show max response, negative = inhibition, most hits filed as inhibitors | hit rate 0.93% among 400,000 | VDR-SRC2-3 peptide fluorescence polarization, 2 h; active = well fitted inhibition curve with a large enough effect; inconclusive = small, poorly fitted or top-dose-only effect, or another doubt; inactive = no such curve, though single readings can be large or run the other way; also: series mostly up to about 120 µM
Target sequence (P11473 whole entry, looked up): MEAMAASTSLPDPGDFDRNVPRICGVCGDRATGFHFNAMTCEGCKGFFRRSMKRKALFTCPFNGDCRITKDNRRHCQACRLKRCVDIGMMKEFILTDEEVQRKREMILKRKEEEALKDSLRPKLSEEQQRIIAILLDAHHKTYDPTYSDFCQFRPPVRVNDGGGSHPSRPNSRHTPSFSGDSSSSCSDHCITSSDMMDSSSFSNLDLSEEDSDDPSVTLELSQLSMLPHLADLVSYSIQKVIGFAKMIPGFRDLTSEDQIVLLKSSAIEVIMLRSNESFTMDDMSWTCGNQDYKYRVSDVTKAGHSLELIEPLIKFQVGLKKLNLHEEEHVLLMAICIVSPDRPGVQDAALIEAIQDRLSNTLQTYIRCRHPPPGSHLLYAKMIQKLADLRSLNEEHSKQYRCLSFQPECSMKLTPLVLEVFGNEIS
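Reagent solutions, kept cold and dark, are dispensed first; compounds are then pinned in at 23 nl, plates briefly spun, and incubated 2 h at ambient temperature. Inhibition of VDR–SRC2-3 peptide binding is read by fluorescence polarization.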
The depositor's hits bear a star; ? = inconclusive; & = joins results of further samples; [ ] = another dose, or the depositor's remark. % is scaled to controls: 0 for no effect and ±100 for the full control effect; potency is read from the fitted curve at half-maximal effect. This is a subset, so the mix of outcomes need not match the whole.

SMILES	VDR inh
O=C(CNC1CCCCC1)Nc1ccc(S(=O)(=O)N2CCCCC2)cc1	-3%
CC(NC(=O)C1CCN(S(=O)(=O)c2cccc3nonc23)CC1)c1ccccc1 (centres undefined)	1%
CCc1ccc(OCC(=O)NC(NC(=S)Nc2ccccc2OC)C(Cl)(Cl)Cl)cc1 (centres undefined)	6%
CCc1nnc(NS(=O)(=O)c2ccc(NC(=S)NC(=O)/C=C/c3ccc([N+](=O)[O-])cc3)cc2)s1	6%
c1ccc2c(C3=NNC(=NC4CCCCC4)SC3)c[nH]c2c1	0%
Nc1nncn1C(=O)c1ccccc1Cl	11%
Cc1ccc(C(=O)NCC(c2ccc3c(c2)OCO3)N2CCN(c3ccc(F)cc3)CC2)cc1 (centres undefined)	13%
Cc1noc(C)c1-c1cc(NCc2cccnc2)ncn1	?
CCN(CC)CC(=O)c1c[nH]c2ccccc12	13%
O=C(CSc1ccc2nnc(CCNC(=O)c3ccccc3)n2n1)Nc1ccccc1	20%
CCC1CN(C(=O)N2CCC(C(=O)NCc3ccccc3OC)CC2)c2cc(C)ccc2O1 (centres undefined)	-14%
COC(=O)c1cccc(C(=O)N2CCCC(C(=O)c3ccccc3OC)C2)c1 (centres undefined)	2%
CCc1ccc2c(c1)C(=O)C(=O)N2CCS(=O)(=O)c1ccccc1	4%
COC(=O)c1c(NC(NC(C)=O)C(Cl)(Cl)Cl)sc2c1CCCC2 (centres undefined)	-15%
COc1ccc(S(=O)(=O)N2CCCC2c2cccs2)cc1 (centres undefined)	2%
CN(CCc1ccc(Cl)c(Cl)c1)CCN1CCCC1	7%&4%
O=C(Cn1ccc2ccccc2c1=O)NCCC(=O)N1CCN(c2ccccc2)CC1	-12%
O=C(C[n+]1ccc(C(=O)NCc2ccccc2)cc1)c1ccc2c(c1)OCCO2	-7%
OCC(CO)(CO)n1cnnn1	3%
CCOC(=O)C1(Cc2cccc(OC)c2)CCCN(C(=O)c2cc(C)on2)C1 (centres undefined)	1%
O=C(CC1SC(N2CCOCC2)=NC1=O)Nc1ccc(Cl)cc1 (centres undefined)	32%[activator]
Cc1ccc(NC(=O)C(C)SCC(=O)Nc2ccc(F)cc2)cc1S(=O)(=O)N1CCOCC1 (centres undefined)	0%
NC(=O)NC1CCCc2c1[nH]c1ccc(Cl)cc21 (centres undefined)	-11%
COc1cccc(CNC(=O)COC(=O)c2ccc(C(=O)c3ccccc3)cc2)c1	-21%
Cc1ccc(NC(=O)c2cc(C)nc3ccccc23)c(Br)c1	-16%

Exported with bars between the fields: entries from further up.
canonical_smiles | VDR inh
CN(CCc1ccc(Cl)c(Cl)c1)CCN1CCCC1 | 7%&4%
O=C(Cn1ccc2ccccc2c1=O)NCCC(=O)N1CCN(c2ccccc2)CC1 | -12%
O=C(C[n+]1ccc(C(=O)NCc2ccccc2)cc1)c1ccc2c(c1)OCCO2 | -7%
OCC(CO)(CO)n1cnnn1 | 3%

(list continues)
SMILES	VDR inh
CCCCN(C)C/C(O)=C(\C#N)c1nc(-c2ccccc2)cs1	-13%
Cc1ccc(-c2nnc(CSc3nnc(COc4ccccc4)n3-c3ccc(C)cc3)o2)cc1	5%
Cc1cccn2c(CN3CCNC(=O)CC3)c(C(=O)N(C)CCc3ccccc3)nc12	-15%
COc1ccccc1-c1noc(CCC(=O)Nc2ccc(C)cc2C)n1	23%
Cc1cccc(-c2cc3nc4c(c(NCc5ccco5)n3n2)CCCC4)c1	2%
CCN1CCN(CC(=O)Nc2ccc(Cl)c(Cl)c2)C(=O)C1=O	9%
COc1ccccc1CN(C)CC(=O)Nc1cccc(S(=O)(=O)N2CCCCC2)c1	-10%
Cc1nc(N2CCCCC2)c(C#N)c(C)c1[N+](=O)[O-]	3%
CNS(=O)(=O)c1cc(-c2nnc(N3CCOCC3)c3ccccc23)ccc1C	-6%
COc1cccc(CNC(=O)CCC(=O)n2ncc3cc(C)ccc32)c1OC	-8%
CC(=O)c1cccc(NC(=O)CSC(=O)c2ccccc2)c1	?
NS(=O)(=O)c1ccc(CCNC(=O)c2cc(-c3ccco3)nc3ccccc23)cc1	-18%
Cc1ccc(NCCC#N)cc1C	-7%
CN(c1ccccc1)S(=O)(=O)c1cccc(NC(=O)c2ccc3ncsc3c2)c1	8%
Cc1cc(NC(=O)CSc2nc(N)c(NC(=O)c3ccc(F)c(F)c3)c(=O)[nH]2)no1	-5%
CCCn1c(N)c(N(CCOC)C(=O)CSCC(=O)Nc2cccc(C)c2)c(=O)[nH]c1=O	-8%
COc1ccc(C(=O)N2CCOC2CNC(=O)C(=O)NCCc2ccccc2OC)cc1 (centres undefined)	10%
CCCCNc1nc2ccccc2n1CC(=O)Nc1c(C)cccc1CC	-2%
N#C/C(=C/c1ccc(Br)o1)C(N)=O	16%
COc1ccc2c(CC(=O)N[C@@H](Cc3ccccc3)C(=O)O)cc(=O)oc2c1	15%
CCCOc1ccc(C(=O)Nc2ccc3oc(-c4cccc(Cl)c4Cl)nc3c2)cc1	3%
COc1ccc(S(=O)(=O)N2CCN(C(=O)CC3CC4CCC3C4)CC2)cc1 (centres undefined)	-21%
O=C(c1cc2ccccc2oc1=O)N1CCN(S(=O)(=O)c2ccccc2)CC1	-9%
COc1cccc(N2CCN(S(=O)(=O)c3cc4c(cc3C)N(C)CCO4)CC2)c1	7%
O=C(CSc1ccc(Br)cc1)N1CCN(S(=O)(=O)c2ccccc2)CC1	-5%

The list goes on:
SMILES	VDR inh
Cc1cc(C)cc(NC(=O)c2ccc(NC3=NC4CS(=O)(=O)CC4S3)cc2)c1 (centres undefined)	3%
Cc1ccc[n+](CC(=O)c2ccc(-c3ccccc3)cc2)c1	-7%
Cc1cc(NC(=O)CSc2nc3ccccc3n2CC(=O)N2CCC(C)CC2)no1	-5%
Cc1ccc(C2(c3ccccc3)NC(=O)N(CC(=O)NC3CCS(=O)(=O)C3)C2=O)cc1C (centres undefined)	?
O=C(CCc1ccccc1)NNC(=O)CCc1ccccc1	2%
CC(C)(C)Cc1cc(N)on1	-13%
CSc1nc(-c2ccc(Cl)cc2Cl)[nH]c(=O)c1C#N	-24%
Cc1ccccc1C(=O)Nc1ccnc(-c2ccncc2)n1	-2%
CSc1nnc(COc2ccc(C)cc2)n1N	-7%
Cn1c(-n2c(-c3ccco3)nc3ccccc3c2=O)nc2ccccc21	22%
Cc1cc(C)cc(C(=O)N2CCCCC2)c1	15%
COc1ccccc1NC(=O)Cn1c(=O)n(CCC(=O)NCC2CCCO2)c(=O)c2cc(OC)c(OC)cc21 (centres undefined)	-8%
Cc1cc(C(=O)N(C)CC(=O)Nc2ccc(F)c(F)c2F)no1	1%
C=CCNC(=S)N/N=C/c1ccc(-c2ccc(Cl)cc2Cl)o1	7%
NC(=O)C1CCN(C(=O)COCc2cc(-c3ccc4c(c3)OCO4)on2)CC1	-1%
Cc1oc(-c2ccc(C(=O)NCCc3ccc(Cl)cc3)cc2)nc1CSc1ccccc1	8%
CCOC(=O)C1=C(C)N=C2SCCC(=O)N2C1c1sccc1C (centres undefined)	8%
Cc1ccccc1CNC(=O)C(=O)NCC(c1ccco1)S(=O)(=O)c1ccccc1 (centres undefined)	15%
CCCCn1nnnc1SCC(=O)NCc1ccco1	-16%
CCN(CC)S(=O)(=O)c1ccc(NC(=O)c2cc(C(=O)OC)cc([N+](=O)[O-])c2)cc1	-10%
COCOc1ccc(C=O)c(OCOC)c1	-1%
O=[N+]([O-])c1ccc(N2CCOCC2)nc1	8%
CN1CCN(c2ncc3nc(-c4cccc(C#N)c4)c(=O)n(Cc4ccc(F)cc4)c3n2)CC1	-2%
Cn1nc(-c2ccccc2)c2cc(C(=O)O)sc21	4%
O=C(c1ccco1)N1CCN(C(c2ccccc2Cl)c2nnnn2CC2CCCO2)CC1 (centres undefined)	-8%

The closing six entries of the section before lead into the next:
SMILES	VDR inh
CCN(CC)S(=O)(=O)c1ccc(NC(=O)c2cc(C(=O)OC)cc([N+](=O)[O-])c2)cc1	-10%
COCOc1ccc(C=O)c(OCOC)c1	-1%
O=[N+]([O-])c1ccc(N2CCOCC2)nc1	8%
CN1CCN(c2ncc3nc(-c4cccc(C#N)c4)c(=O)n(Cc4ccc(F)cc4)c3n2)CC1	-2%
Cn1nc(-c2ccccc2)c2cc(C(=O)O)sc21	4%
O=C(c1ccco1)N1CCN(C(c2ccccc2Cl)c2nnnn2CC2CCCO2)CC1 (centres undefined)	-8%
COc1cc(/C=N/NC(=O)COc2ccc(Cl)cc2)ccc1OS(=O)(=O)c1ccc(C)cc1	6%
O=C(CN(Cc1ccc(F)cc1)C(=O)CNS(=O)(=O)c1ccccc1)NCc1ccco1	-1%
CCCn1ncc([C@@H]2C[C@H]3CN(Cc4cccc(Cl)c4)C(=O)[C@]34CCCN24)c1C	23%
CCOC(=O)c1cc(-c2ccc(C)cc2)n(CC(=O)Nc2ccc(OC)c(Cl)c2)c1C	10%
CN(C)CCCNC(=O)CC1C[C@H](C(=O)N2CCCCC2)[C@@]2(CCc3ccccc3)c3[nH]c4ccccc4c3CCN2C1=O (some centres undefined)	13%
Cc1ccc(-n2c(SCC(=O)N/N=C/c3c(C)nn(-c4ccccc4)c3C)nc3ccccc3c2=O)cc1	-20%
O=C(/C=C/c1ccccc1)Nc1cccc(C(=O)N2CCCCC2)c1	-2%
COc1ccccc1NC(=O)Nc1cccc(C(=O)O)c1	3%
O=C(CSc1n[nH]c(-c2ccccc2F)n1)NCC(=O)Nc1ccc(F)c(F)c1F	-1%
COc1ccccc1CNC(=S)NC1CCCC1	-22%
CCCCCN1CC(O)=C(c2nc3ccccc3[nH]2)C1=N	-4%
CC(Sc1nnnn1C1CCCCC1)C(=O)O (centres undefined)	79µM*
O=c1c2ccccc2nc2ccc(NCc3ccco3)nn12	1%
CC(C)c1ccc(NC2CCCN(C(=O)c3ccc(N4CCOCC4)cc3)C2)cc1 (centres undefined)	-15%
CCC(=O)c1cn(CC(=O)Nc2c(C)cccc2C)c2ccccc12	-21%
CC(C)CCNC(=O)C(=O)Nc1ccc2c(c1)N(S(=O)(=O)c1cccs1)CCC2	-1%
CCOCCCn1c(=N)c(C(=O)NCc2ccco2)cc2c(=O)n3ccccc3nc21	8%
O=c1cc(-c2cccc(O)c2)oc2cccc(O)c12	0%
CCN1C(=O)c2cccc3c(S(=O)(=O)NCc4cccnc4)ccc1c23	-7%
O=C1c2ccccc2C(=O)N1CCc1nc2ccccc2c(=O)n1-c1ccccn1	-10%
O=C(O)c1ccc(CS(=O)(=O)c2cccc(C(F)(F)F)c2)o1	5%
O=C(Nc1ccccc1)N1CCCC2(CCN(C(=O)c3cnccn3)CC2)C1	3%
CC(=O)Nc1ccc(C(=O)OCC(=O)/C(C#N)=C(\C)N)cc1	3%
COc1ccc2c(c1)C(=O)N(Cc1ccccc1)C(=O)C2(C)C	23%
Cc1ccc(CNC(=O)c2cc(=O)c3cc(C)c(C)cc3o2)cc1	5%

Random excerpt: three compounds from above.
SMILES	VDR inh
COc1ccccc1NC(=O)Nc1cccc(C(=O)O)c1	3%
CC(=O)Nc1ccc(C(=O)OCC(=O)/C(C#N)=C(\C)N)cc1	3%
O=C(/C=C/c1ccccc1)Nc1cccc(C(=O)N2CCCCC2)c1	-2%

The listing continues.
SMILES	VDR inh
O=C(NNC(=O)c1ccc(S(=O)(=O)N2CCOCC2)cc1)c1ccccc1	-9%
COc1cccc(CNC(=O)C2CCC(=O)N(CCc3cccc(F)c3)C2)c1 (centres undefined)	-9%
CCC(C)N(C(=O)CSc1nc(C)nc2ccccc12)C1CCS(=O)(=O)C1 (centres undefined)	-15%
Fc1ccc(-c2noc3ncnc(N4CCN(c5ccccc5)CC4)c23)cc1	6%
Cc1cccc(C)c1NC(=O)COC(=O)c1c2c(nc3ccccc13)/C(=C\c1ccc3c(c1)OCO3)CCC2	-19%
O=C(Nc1ccc(F)c(Cl)c1)Nc1cnccn1	6%
COc1ccccc1CC(=O)NCC(c1ccco1)N1CCCCC1 (centres undefined)	-6%
CCCCCCCNC(=O)COc1ccc2c(c1)C(=O)CC(C)(C)O2	0%
Cc1onc(-c2ccccc2Cl)c1C(=O)NC(=S)NCC(=O)c1ccccc1	-10%
Cc1cccc(CNC(=O)C2CCN(S(=O)(=O)c3ccc4c(c3)CCCN4C(=O)C3CCC3)CC2)c1	-3%
CCc1ccc(-c2cc3c(=O)n(CC(=O)N4CCCC4)nc(C)n3n2)cc1	-7%
COc1cccc2c1-c1c(C(=O)O)cccc1C2=O	5%
COc1ccc(CNC(=O)CN2CCC(NC(=O)c3cccc(OC)c3)CC2)cc1	-16%
COc1ccccc1NS(=O)(=O)c1ccc(C)c(NC(=O)NCCCl)c1	12%
Cc1ccc(C)c(NC(=O)CSc2nc3c(oc4ccccc43)c(=O)n2-c2ccccc2)c1	-11%
CCOC(=O)Cc1csc(NC(=O)CSc2nnc3ccccn23)n1	2%
CCOc1cc(N2CCOCC2)c(OCC)cc1NC(=O)c1cnccn1	-13%
CCCCNC(=O)CN1C(=O)CSc2ccc(S(=O)(=O)N3CCC(C)CC3)cc21	-12%
CC1(C)Cc2c(sc(/N=C/N3CCOCC3)c2C#N)C(C)(C)N1	-10%
CCC(Cc1ccccc1)NC(=O)Cn1ncc2ccsc2c1=O (centres undefined)	-13%
COc1ccc(-n2c(=O)c3c(C)c(C)sc3n(Cc3cccc(F)c3)c2=O)c(OC)c1	1%
Cc1ccc(-n2nc3ccc(NC(=O)c4ccco4)cc3n2)cc1	2%
O=C(CN1CCN(S(=O)(=O)c2ccc(Br)cc2)CC1)Nc1ccc2c(c1)OCCO2	18%
COc1ccccc1CN(C)C(=O)c1cc(-c2cccs2)nc2ccccc12	20%
Cc1c(NC(=O)Nc2ccccc2Cl)sc(=S)n1C	-1%
CCCC(NC(=O)CCc1c(C)c2cc3c(-c4ccccc4)coc3cc2oc1=O)C(=O)O (centres undefined)	-10%
